Bioassay records deposited in PubChem by Sanford-Burnham Center for Chemical Genomics.
HNF4A DNA FP – change in binding of human HNF4 alpha to DNA; P41235; HNF4a-FITC DNA binding, fluorescence polarization, 1 h; activity change, % at 10 µM; 0.3% of 360,000 active; AID 1224865; in the data active = activity change above about 30%, passing the limit was not always enough;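 also: controls were the assay level and a saturating level of protein; the project sought stronger binding though the title names inhibitors; some compounds called inactive have numbers as strong as hits; positive values seem to mean higher polarization but the record does not say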
Target sequence (P41235 whole entry, looked up): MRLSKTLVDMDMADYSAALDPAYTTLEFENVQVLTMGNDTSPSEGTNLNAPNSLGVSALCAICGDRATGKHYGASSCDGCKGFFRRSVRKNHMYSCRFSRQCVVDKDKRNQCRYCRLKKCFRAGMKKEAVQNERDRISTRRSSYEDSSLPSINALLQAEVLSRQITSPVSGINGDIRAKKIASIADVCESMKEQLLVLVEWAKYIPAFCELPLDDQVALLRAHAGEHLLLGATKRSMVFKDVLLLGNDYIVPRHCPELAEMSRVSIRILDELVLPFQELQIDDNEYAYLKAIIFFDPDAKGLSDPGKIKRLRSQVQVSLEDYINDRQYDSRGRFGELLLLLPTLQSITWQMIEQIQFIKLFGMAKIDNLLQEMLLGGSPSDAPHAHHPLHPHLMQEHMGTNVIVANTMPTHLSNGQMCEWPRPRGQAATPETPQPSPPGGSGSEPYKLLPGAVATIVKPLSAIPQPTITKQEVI
Active calls of the source: *. This is a subset; rates above refer to the full screens.

Sample of the layout (6 entries):
nr	HNF4A DNA FP	SMILES
1	-1.7	COc1ccc(Cc2c(-c3ccc(C#N)cc3)nc3c(Cl)cc(C(F)(F)F)cn23)c(C)c1
2	1.1	CCc1nc2c(OCCC3CCCCC3)cccn2c1N(C)C(=O)c1cccs1
3	-2.2	Fc1ccccc1N1CCN(C(c2ccnc3ccccc23)c2nnnn2-c2ccc3c(c2)OCCO3)CC1 (stereo unspecified)
4	0.4	COC(=O)[C@@]12C[C@@H](CC(=O)NCCc3ccccc3OC)C(=O)N(Cc3ccccc3)C1=CCC(C)(C)C2
5	-0.8	CCNC(=O)C1CCCN(Cc2cc(-c3ccccc3)on2)CC1 (stereo unspecified)
6	-0.2	O=S1(=O)C[C@@H](N2CCN(CC3CC3)CC2)[C@H](COCc2ccccc2)N1

Results, from the first entry:
nr	HNF4A DNA FP	SMILES
1	-1.7	COc1ccc(Cc2c(-c3ccc(C#N)cc3)nc3c(Cl)cc(C(F)(F)F)cn23)c(C)c1
2	1.1	CCc1nc2c(OCCC3CCCCC3)cccn2c1N(C)C(=O)c1cccs1
3	-2.2	Fc1ccccc1N1CCN(C(c2ccnc3ccccc23)c2nnnn2-c2ccc3c(c2)OCCO3)CC1 (stereo unspecified)
4	0.4	COC(=O)[C@@]12C[C@@H](CC(=O)NCCc3ccccc3OC)C(=O)N(Cc3ccccc3)C1=CCC(C)(C)C2
5	-0.8	CCNC(=O)C1CCCN(Cc2cc(-c3ccccc3)on2)CC1 (stereo unspecified)
6	-0.2	O=S1(=O)C[C@@H](N2CCN(CC3CC3)CC2)[C@H](COCc2ccccc2)N1
7	3.6	CCOC(=O)[C@]12CCCC=C1N(Cc1ccc(Cl)cc1Cl)C(=O)[C@H](CC(=O)NCCCCc1ccccc1)C2
8	-4.1	CC1(C)CC(Cc2ccc(C(=O)c3ccccc3)cc2)N(C(=O)OC(C)(C)C)N1 (stereo unspecified)
9	6.5	FC(F)(F)c1cc(Cl)c2nc(-c3ccccc3)c(Cc3ccsc3)n2c1
10	-23	COc1ccc2nc(C(c3ccc(C)cc3)n3c(-c4ccccc4Br)nc4ccccc43)[nH]c2c1 (stereo unspecified)
11	6.0	Nc1ccn([C@@H]2O[C@H](C(=O)Nc3cc(C(F)(F)F)cc(C(F)(F)F)c3)[C@@H](O)[C@H]2O)c(=O)n1
12	3.5	OC(c1ccc(F)cc1)c1nc(-c2cnc3ccccc3c2)cs1 (stereo unspecified)
13	-4.8	Cc1ccc(CN2CC(N3CCN(C4CCN(C)CC4)CC3)CS2(=O)=O)cc1 (stereo unspecified)
14	6.1	O=C(NCc1cccc(Cl)c1)c1cccc2c(-c3cccnc3)coc12
15	4.8	COc1cc(CNC(=O)Nc2nc(C(N)c3ccccc3)cs2)cc(OC)c1OC (stereo unspecified)
16	10.0	COc1ccc(-c2c(Sc3ccccc3)c3cc(-c4ccc(OC)c(F)c4)ccc3n2C)cc1
17	14	COc1ccc(NC(=O)C(c2ccc(C#N)cc2)n2c(=O)c(-c3ccco3)nc3ccccc32)cc1 (stereo unspecified)
18	2.2	COc1cncc(-c2cnc3sc(NCCc4ccccn4)nn23)c1
19	2.8	CCCCn1nnnc1C(c1cc2ccccc2o1)N(CCC#N)Cc1ccccc1 (stereo unspecified)
20	1.6	CC1(C(=O)NCc2ccc3c(c2)OCO3)CCN1C(=O)CC1CCCC1 (stereo unspecified)
21	-4.1	COCc1cccc(-c2csc(C(O)c3ccc(F)c(OC)c3)n2)c1 (stereo unspecified)
22	19	Cc1ccccc1CN1C(=O)C(C)Sc2ccc(-c3ccco3)cc21 (stereo unspecified)
23	3.8	COc1ccc(CC(N)c2csc(Nc3ccccn3)n2)cc1 (stereo unspecified)
24	-3.5	CC(C)c1ccc([C@@H]2O[C@H](C)CC3=C2C(=O)OC(C)(C)O3)cc1
25	3.8	OC(c1ccccc1)c1nc(-c2ccc3c(c2)OCO3)cs1 (stereo unspecified)
26	-1.1	COCCNc1nc(NCc2ccccc2OC)c2sccc2n1
27	-0.2	COc1ccc(C(NC(=O)C2CCN(Cc3ccc(Oc4ccccc4)cc3)CC2)c2ccccn2)cc1 (stereo unspecified)
28	1.1	CCc1nc2ccc(C(=O)NCCC(C)C)cn2c1N(CC)CCOC
29	-5.0	Cc1ccc(-n2ncc3c(=O)n(-c4cccc(C)c4)c(=O)[nH]c32)cc1
30	0.1	COc1ccc(Nc2nc3cc(-c4sccc4C)sc3c(=O)n2C)cc1OC

6 entries from above in another layout:
| entry | SMILES | HNF4A DNA FP |
| --- | --- | --- |
| 9 | FC(F)(F)c1cc(Cl)c2nc(-c3ccccc3)c(Cc3ccsc3)n2c1 | 6.5 |
| 10 | COc1ccc2nc(C(c3ccc(C)cc3)n3c(-c4ccccc4Br)nc4ccccc43)[nH]c2c1 (stereo unspecified) | -23 |
| 11 | Nc1ccn([C@@H]2O[C@H](C(=O)Nc3cc(C(F)(F)F)cc(C(F)(F)F)c3)[C@@H](O)[C@H]2O)c(=O)n1 | 6.0 |
| 12 | OC(c1ccc(F)cc1)c1nc(-c2cnc3ccccc3c2)cs1 (stereo unspecified) | 3.5 |
| 13 | Cc1ccc(CN2CC(N3CCN(C4CCN(C)CC4)CC3)CS2(=O)=O)cc1 (stereo unspecified) | -4.8 |
| 14 | O=C(NCc1cccc(Cl)c1)c1cccc2c(-c3cccnc3)coc12 | 6.1 |

Following part.
nr	HNF4A DNA FP	SMILES
31	-0.1	COc1ncc(-c2c(-c3ccccc3OC)sc3ccccc23)cn1
32	0.5	Nc1ncnc2c1ncn2[C@@H]1O[C@H](C(=O)NCCc2ccc(F)cc2)[C@@H](O)[C@H]1O
33	-2.0	OC(c1ccc(F)c(F)c1)c1nc(-c2cccc(C(F)(F)F)c2)cs1 (stereo unspecified)
34	-5.2	CCc1nc2ccc(C(=O)N3CCN(C)CC3)cn2c1N(CCC(C)C)CCN(C)C
35	-2.4	CSc1ccc(-c2cc3c(c4c2ccn4C)C2CCC3O2)cc1 (stereo unspecified)
36	-1.6	CN(Cc1ccccc1)C(=O)c1ccc2sc([C@@H]3O[C@H](CO)[C@H](O)[C@H](O)[C@H]3O)nc2c1
37	-2.2	CCCCNC(=O)C[C@@H]1C[C@@]2(C(=O)OC)CCCCC=C2N(Cc2ccc3c(c2)OCO3)C1=O
38	3.8	CCOC(=O)C1(C)CCN1C(=O)COc1ccc(C(C)(C)C)cc1 (stereo unspecified)
39	2.0	Cc1cccc(C)c1NC(=O)C1(C)CSCC(=O)N1CCc1c[nH]c2ccccc12 (stereo unspecified)
40	-2.7	O=C(c1cc(-c2ccccc2)on1)N(Cc1cccnc1)C(c1ccccn1)c1nc2ccccc2[nH]1 (stereo unspecified)
41	-0.2	O=c1[nH]c(=S)[nH]c2c1C(c1ccc(Cl)c(Cl)c1)OC(CCc1ccccc1)C2 (stereo unspecified)
42	0.2	NC(=O)c1cccc(-c2ccnc3c2CC(C(=O)NCc2ccco2)O3)c1 (stereo unspecified)
43	-2.4	CC(C)CC(N)c1csc(Nc2ncccn2)n1 (stereo unspecified)
44	-1.9	COc1cc(/C=C/C(=O)OCC(=O)N2CCCCCC2)cc(OC)c1OC
45	5.2	CCN1CCC(C(=O)NC(c2ccc(F)cc2)c2ncccc2C)CC1 (stereo unspecified)
46	2.9	Cc1ccc(CNC(=O)c2[nH]c(C(F)(F)F)nc2-c2ccccc2)cc1
47	2.2	Cc1ccccc1CNC(=O)C(C)Sc1ccccc1 (stereo unspecified)
48	1.7	COc1ccc(Cn2cc(Cn3c4ccccc4c(=O)n3C(C)C)nn2)cc1
49	-1.4	CC(C)c1ccc([C@@H]2O[C@H](CCc3ccccc3)Cc3[nH][nH]c(=O)c32)cc1
50	1.4	CCOC(=O)C(=O)N(C)c1c(CC)nc2c(OCc3ccc(OC(F)F)cc3)cccn12
51	-2.6	Cc1noc(C)c1S(=O)(=O)NC(=O)C1(C)CCN1C(=O)C1(c2ccc(Cl)cc2)CC1 (stereo unspecified)
52	2.7	OCC[C@@H]1C[C@H](O)[C@@H](O)[C@@]2(OCc3ccc(CO)cc32)O1
53	12	COC(=O)c1ccc2nc(-c3ccc(C)cc3)c(CC3CCCCC3)n2c1
54	-1.5	CC(C)(C)C(c1nc2ccccc2[nH]1)n1c(-c2cccc(S(C)(=O)=O)c2)nc2ccccc21 (stereo unspecified)
55	3.5	CC1(C(=O)Nc2ccc3c(c2)OCO3)CCN1C(=O)C1CCCCC1 (stereo unspecified)
56	3.4	Nc1[nH]c(C(=O)c2ccccc2)c(-c2ccc(Br)cc2)c1C(=O)c1cccs1
57	2.3	COc1cc(OC)cc(C2=Cc3ccccc3C(CC(=O)c3ccco3)N2c2ccc(-c3cccnc3)cc2)c1 (stereo unspecified)
58	0.4	COCCNC(=O)C1CCCN(C(=O)c2ccc(C(F)(F)F)nc2C)CC1 (stereo unspecified)
59	-5.9	Cc1ccccc1N1Cc2ccccc2C1=O
60	2.9	COc1ccc(CNC(=O)[C@H](Cc2ccccc2)NC(=O)CC[C@H]2O[C@@H](n3ccc(=O)[nH]c3=O)[C@H](O)[C@@H]2O)cc1

Sorted by the number under HNF4A DNA FP (lowest first): 3 of the compounds above.
nr	HNF4A DNA FP	SMILES
34	-5.2	CCc1nc2ccc(C(=O)N3CCN(C)CC3)cn2c1N(CCC(C)C)CCN(C)C
31	-0.1	COc1ncc(-c2c(-c3ccccc3OC)sc3ccccc23)cn1
32	0.5	Nc1ncnc2c1ncn2[C@@H]1O[C@H](C(=O)NCCc2ccc(F)cc2)[C@@H](O)[C@H]1O

(continued)
nr	HNF4A DNA FP	SMILES
61	-9.7	CC(C)CC1NC(=O)c2cc3ccccc3cc2-n2c1nc1ccc(Cl)cc1c2=O (stereo unspecified)
62	-2.9	CC(C(=O)NC(C)(C)C)n1c(-c2ccccc2)nc2ccccc21 (stereo unspecified)
63	2.1	COC(=O)[C@@H](Cc1ccccc1)NC(=O)/C=C/[C@H]1O[C@@H](n2cnc3c(NC(=O)c4ccccc4)ncnc32)[C@H](O)[C@@H]1O
64	2.2	COc1ccc(N2CCN(C3C(=O)Nc4ccccc4-n4nnnc43)CC2)cc1 (stereo unspecified)
65	18	O=C(NCc1ccccc1)C(C1CC1)n1c(=O)c(-c2ccco2)nc2ccccc21 (stereo unspecified)
66	-1.0	CCOC(=O)[C@]12CCCC=C1N(Cc1cccc3ccccc13)C(=O)[C@H](CC(=O)N1CCCCC1)C2
67	2.6	CCNC(=O)N(C)c1c(CC)nc2ccc(C(=O)N3CCN(S(=O)(=O)CC)CC3)cn12
68	-2.1	Clc1cccc(CNc2ccn3nc(-c4ccc(OCCN5CCOCC5)cc4)cc3n2)c1
69	0.5	CCCCc1c(-c2ccc(Br)cc2)ncn1CCc1ccccc1OC
70	2.5	NC(c1csc(Nc2ccc(C(=O)NCCCO)cn2)n1)c1ccccc1Cl (stereo unspecified)
71	3.9	CCOc1ccc(Cl)cc1-c1cc(C(=O)NCC2CCCCC2)[nH]n1
72	0.7	CN(Cc1ccccc1)c1cc2c(c3c1ccn3C)C1CCC2C1 (stereo unspecified)
73	1.1	CC(C)NC(=O)C1C(c2ccc(C(F)(F)F)cc2)=Nc2ccccc2N1C(=O)c1ccco1 (stereo unspecified)
74	-1.3	CCCCN(C=O)c1c(CC)nc2c(OCCn3cccc3)cccn12
75	-0.3	Cc1cccc(S(=O)(=O)NC(=O)C2(C)CCN2C(=O)c2ccc(C3CCCCC3)cc2)c1 (stereo unspecified)
76	-5.4	COc1cccc(C(NC(C)=O)c2nc(-c3cccc(C(C)C)c3)cs2)c1 (stereo unspecified)
77	0.8	Cn1c(=O)c2cc(NC(=O)NCCc3cccs3)ccc2n1C/C=C/c1ccccc1
78	-1.1	O=C(NC1CCCC1)C(c1ccco1)N1CCN(c2c(Cl)cncc2Cl)CC1 (stereo unspecified)
79	1.3	CC(C)C[C@H]1CNC(=S)N1C[C@H]1CCCN1C[C@H](CC(C)C)N1C[C@H](Cc2ccc(O)cc2)N(CC2CCCCCC2)C1=S
80	3.6	CC1(C(=O)NS(=O)(=O)Cc2cccc(Cl)c2)CCN1C(=O)C/C=C/c1ccccc1 (stereo unspecified)
81	2.2	COc1cccc(NC(=O)CN2CCC(NC(=O)c3ccccc3C)CC2)c1
82	0.5	OC(c1ccccc1)c1ncc(-c2cccc(C(F)(F)F)c2)[nH]1 (stereo unspecified)
83	-4.0	O=C(C[C@H]1C(=O)N(c2ccccc2)C[C@@H]1Cc1ccccc1)Nc1ccc(Br)cc1
84	1.8	CCOc1ccc(CCNC(=O)C2CCCN(S(=O)(=O)N3CCCCC3)C2)cc1OCC (stereo unspecified)
85	0.0	CC(=O)c1cc2cccc(OC3(C)CCN(Cc4ccc5ccccc5c4)C3)c2o1 (stereo unspecified)
86	-0.2	CCCCC[C@@H](C)N1C[C@@H](COCc2ccccc2)Oc2cc(N3CC[C@@H](O)C3)ccc2S1(=O)=O
87	-3.8	O=C(Nc1ccc2c(c1)OCCO2)C(C1CC1)N1CCN(c2ccc(C(F)(F)F)cn2)CC1 (stereo unspecified)
88	0.8	C[C@H]1CN([C@@H](C)CO)C(=O)CCCn2nncc2CO[C@H]1CN(C)S(=O)(=O)c1ccc(C#N)cc1
89	-1.3	CCOC(=O)N1CCN(C(=O)C[C@@H]2C[C@@]3(C(=O)OCC)CCCC=C3N(Cc3ccc4c(c3)OCO4)C2=O)CC1
90	-1.4	O=C(Oc1ccccc1)N1CCCCC1
91	-0.1	CC1(C(=O)NCc2ccccc2)CSCC(=O)N1Cc1cccc(F)c1 (stereo unspecified)
92	-1.5	O=C(NNC(=O)c1csc(-c2ccccc2)n1)c1ccccc1

Another view of part of the listing above:
No. | Molecule | HNF4A DNA FP
71 | CCOc1ccc(Cl)cc1-c1cc(C(=O)NCC2CCCCC2)[nH]n1 | 3.9
72 | CN(Cc1ccccc1)c1cc2c(c3c1ccn3C)C1CCC2C1 (stereo unspecified) | 0.7
73 | CC(C)NC(=O)C1C(c2ccc(C(F)(F)F)cc2)=Nc2ccccc2N1C(=O)c1ccco1 (stereo unspecified) | 1.1
